Screening data from PubChem.
26S disassembly: blocks ATP-dependent breakdown of the yeast 26S proteasome; inhibition of disassembly, % (test concentration not listed); anti-FLAG beads, GFP-proteasome disassembly, flow cytometry; 0.2% of 24,000 active;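 active = above 40%; inconclusive = likely self-fluorescent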;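 also: plate controls were ATP control with full disassembly for no effect and ATP-gamma-S intact proteasomes for full effect; higher percent means more bead fluorescence retained so stronger block of disassembly; stock transfer was 100 nL into about 10 µL; wells with too few beads may also be inconclusive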
VCAM-1 rise: enhancers of VCAM-1 display on endothelial cells, cell-based, plate reader, pooled HUVEC, TNFa stimulus (AID 455); augmentation, % at 5 µM; 0.2% of 10,000 active; HUVEC TNFa-induced VCAM-1 immunofluorescence, plate reader; numbers were filed only for top-ranked candidate wells;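 active = a compound raising TNF-alpha-driven VCAM-1 surface staining, with its hit status upheld on visual or statistical review; inactive = the rest, including hits rejected on review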;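 also: 0% = TNFa with vehicle and 100% = strongest image-checked hit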
The depositor's hits bear a star; i = inactive; ? = inconclusive; nt = not tested or not shown. The list is partial; count on the stated rates, not on these rows.

SMILES	26S disassembly	VCAM-1 rise
COCCN1C(=O)C(=O)/C(=C(/O)c2cccc(OC)c2)C1c1ccncc1 (stereo unspecified)	-2.9	i
CCOc1ccc(OCC)c(NC(=O)CCn2cccc2)c1	?	nt
COc1ccc(Cn2c(=O)[nH]c3cc(C(=O)N4CCN(Cc5ccccc5)CC4)ccc3c2=O)cc1	0.3	nt
O=C(O)CCC(=O)NC1CCCCC1NC(=O)CCC(=O)O (stereo unspecified)	0.4	i
O=C(CCS(=O)(=O)c1cccc2nonc12)N1CCOCC1	-1.1	nt
CC1CCN(CCCNC(=O)C2CC(=O)N(C3CCCCCC3)C2)CC1 (stereo unspecified)	-0.8	nt
O=C(CN1CCN(c2ccccc2F)CC1)c1ccc2c(c1)OCO2	-0.9	nt
CC(C)Sc1oc(-c2ccco2)nc1S(=O)(=O)c1ccccc1	2.8	nt
O=C(NCc1ccc2c(c1)OCO2)C1CCCN(S(=O)(=O)c2cccc3nonc23)C1 (stereo unspecified)	1.9	nt
O=C(CN1CCN(c2ccc(Cl)cc2)CC1)Nc1ccc(F)c(F)c1	-0.9	nt
CCSC1=NCN(CCCC(=O)O)CN1	-0.3	i
O=C(c1ccc(Cl)cc1)N(Cc1cccs1)C1CCS(=O)(=O)C1 (stereo unspecified)	-1.1	i
CCCN1Cc2cccc(C(=O)NCc3ccc4c(c3)OCO4)c2C1=O	-3.3	nt
COCCNC(=O)CN1CCOc2ccccc21	-1.5	nt
CCN(CC)C(=O)c1ccc(NS(=O)(=O)c2ccccc2)cc1	0.3	i
CC(C)C(NC(=O)c1ccc(S(=O)(=O)N2CCOCC2)cc1)c1nc2ccccc2[nH]1 (stereo unspecified)	3.3	i
O=C(NCc1ccc(F)cc1)C1CCC(=O)N1C1CCCCC1 (stereo unspecified)	0.3	nt
COc1ccc(C2CC(c3ccc(OC)cc3)n3nc(N)nc3N2)cc1 (stereo unspecified)	-1.1	i
CC(C)OC(=O)C1C(=O)CC(C)(O)C(C(=O)OC(C)C)C1c1cccc(O)c1 (stereo unspecified)	2.6	nt
CCOC(=O)c1c(C)oc2c1c1c(c3ccccc32)OCN(Cc2cccnc2)C1	1.7	i
CCC(C)NC(=O)CCNS(=O)(=O)c1ccc(Br)cc1 (stereo unspecified)	0.2	i
CC(=O)C1=C(O)C(=O)N(c2ccc(C(=O)O)cc2)C1c1ccccc1 (stereo unspecified)	1.7	i
Cc1ccccc1-n1c(Cn2c(=O)sc3ccccc32)nnc1SCC(=O)N1CCOCC1	3.0	nt
CCCCN(CC)S(=O)(=O)c1ccc2c(c1)CCCN2C(C)=O	0.6	i
O=C(Cn1cnc2ccccc2c1=O)NCC(=O)N1CCN(c2ccccn2)CC1	-0.3	nt

Brought forward from above: five compounds; new compounds follow.
SMILES	26S disassembly	VCAM-1 rise
CCC(C)NC(=O)CCNS(=O)(=O)c1ccc(Br)cc1 (stereo unspecified)	0.2	i
CC(=O)C1=C(O)C(=O)N(c2ccc(C(=O)O)cc2)C1c1ccccc1 (stereo unspecified)	1.7	i
Cc1ccccc1-n1c(Cn2c(=O)sc3ccccc32)nnc1SCC(=O)N1CCOCC1	3.0	nt
CCCCN(CC)S(=O)(=O)c1ccc2c(c1)CCCN2C(C)=O	0.6	i
O=C(Cn1cnc2ccccc2c1=O)NCC(=O)N1CCN(c2ccccn2)CC1	-0.3	nt
O=C(CCCC1=NS(=O)(=O)c2ccccc2N1)N1CCN(c2ccccc2)CC1	0.0	nt
CCS(=O)(=O)NCCc1cc2cc(C)c(C)cc2[nH]c1=O	-0.4	nt
CCOC(=O)N1CCC(NC(=O)COc2cc(=O)n(C)c3ccccc23)CC1	0.2	nt
CSc1nc(-c2ccco2)nn1C(=O)c1ccco1	-0.7	nt
COC(=O)CNC(=O)c1cn(CC(C)C)c(=O)c2cc(OC)c(OC)cc12	-1.1	nt
CSc1nc(C)cc(OCC(=O)N2CCOCC2)n1	-0.4	i
CC1CCN(c2nnc(N3CCC(C)CC3)c3ccccc23)CC1	0.9	nt
COc1ccc(-c2nc(CSCC(=O)N3CCN(C(=O)c4ccco4)CC3)c(C)o2)cc1OC	4.5	nt
CCOC(=O)C1CCN(C(=O)CCNC(=O)Cn2ccc3ccccc3c2=O)CC1	-1.1	nt
CCCCOCCCNC(=O)c1ccc(NC(C)=O)cc1	1.5	i
Cc1ccc2c(c1)NC(=O)C(CC(=O)NCCCN1CCN(c3cc(C)ccc3C)CC1)O2 (stereo unspecified)	-3.0	nt
CC1CCN(C(=O)CSc2nnc(CNC(=O)COc3ccc(Cl)cc3)o2)CC1	2.1	nt
OCCCc1nc2n(n1)C(c1ccccc1Cl)C=C(c1cccs1)N2 (stereo unspecified)	-3.9	nt
CCOC(=O)CC(=O)c1cc(OC)c(OC)c(OC)c1	-2.5	i
O=C(Cn1ncc2c(=O)oc3ccccc3c21)NCCN1CCN(c2ccccc2F)CC1	1.2	nt
COC(=O)C1C(=O)c2c([nH]c(C(=O)OC3CCCCCC3)c2C)CC1C (stereo unspecified)	-0.6	nt
CCOc1ccc(-n2c(SCC(=O)Nc3ccc(OC)cc3)nc3c(c2=O)SCC3)cc1	5.0	nt
O=C(CSc1nnc(Cn2c(=O)sc3ccccc32)n1-c1ccccc1)Nc1nccs1	0.6	i
CC1CCCC(N2CCN(C(=O)c3ccc(F)cc3)CC2)C1 (stereo unspecified)	-0.2	i
CCOC(=O)c1cccc(NC(=O)C2CCC(CNc3c(N4CCOCC4)c(=O)c3=O)CC2)c1 (stereo unspecified)	-1.2	nt
O=C(Nc1ccc(-c2noc(CCc3ccccc3)n2)cc1)c1cccnc1	0.9	nt
O=C(CCCCn1c(=O)c2ccccc2n(Cc2ccc(F)cc2)c1=O)NCc1ccco1	0.2	nt
O=C(NCCN1CCOCC1)NC1(C(F)(F)F)Oc2ccc(Cl)cc2O1 (stereo unspecified)	-3.0	i
O=C(c1sccc1-n1cccc1)N1CCCC1	1.9	nt
Cc1noc(C)c1S(=O)(=O)N(CC(=O)N1CCCCCC1)c1ccc(C(C)C)cc1	-0.6	nt
SMILES	26S disassembly	VCAM-1 rise
CCCCCOC(=O)c1[nH]c2c(c1C)C(=O)C(C(=O)OC)C(C)C2 (stereo unspecified)	-1.2	nt
O=C(Nc1ccccc1C(=O)N1CCCCCC1)c1cccc(S(=O)(=O)N2CCOCC2)c1	-0.8	i
O=C(CC1Oc2ccc(Cl)cc2NC1=O)NC1CCCCCC1 (stereo unspecified)	1.3	i
COc1ccc(-c2nnc3ccc(SCC(=O)N4CCN(c5ccccc5)CC4)nn23)cc1	1.2	nt
CCOC(=O)c1oc2cccc(OC(C)=O)c2c1C	-0.9	i
O=C(C1CCC1)N1CCc2cc(S(=O)(=O)NCc3cccnc3)ccc21	-0.2	nt
CCN1CCN(c2cc(C)c3cc(NC(=O)Cc4ccc(OC)c(OC)c4)ccc3n2)CC1	-0.3	nt
Cc1n[nH]c(C)c1N1C(=O)c2cccc3cc(Br)cc(c23)C1=O	2.1	i
Cc1ccc(CNC(=O)c2cc3c(=O)n(C)c4ccccc4c3n2C)o1	-0.5	nt
CCc1cc2c(cc(C(=O)O)n2C)s1	-0.3	nt
CCc1nnc(NC(=O)c2ccc(S(=O)(=O)NC3CCCCC3)cc2)s1	-0.6	i
COC(=O)n1c(=O)oc2cc(S(=O)(=O)N3CCOCC3)ccc21	2.3	nt
Cn1cc(CC(=O)N2CCN(c3ccc(Cl)cc3)CC2)c2ccccc21	1.1	nt
CC1CCN(C(=O)CSc2nnc(Cc3cc(=O)[nH]c(=O)[nH]3)n2-c2ccc(Cl)cc2)CC1	1.4	i
Cc1ccc(C)c(N2CCN(C(=O)c3cc4ccccc4oc3=O)CC2)c1	0.3	nt
O=C(Nc1ccc(-n2nncc2-c2ccco2)cc1)c1cc2ccccc2oc1=O	2.2	nt
CN1C(=O)CSc2ccc(C(=O)O)cc21	1.0	nt
O=C(C1CCN(c2nnc(-n3cccc3)s2)CC1)N1CCOCC1	0.5	i
COc1ccc2cc(CN(CCO)C(=O)c3ccc(Br)cc3)c(=O)[nH]c2c1	0.4	i
COc1cc(-c2nnc(SCc3c(F)cccc3Cl)o2)cc(OC)c1OC	-2.0	i
CC(C)(O)C#Cc1ccc(C(=O)NCc2cccs2)s1	1.4	nt
CCC(c1c(C)n(C)n(-c2ccccc2)c1=O)c1c(C)n(C)n(-c2ccccc2)c1=O	2.7	i
Cc1ccc(C)c(NC(=O)c2ccc3c(c2)N(Cc2ccc(F)cc2)C(=O)CS3=O)c1 (stereo unspecified)	-0.8	i
CCC(C(=O)O)n1c(C(F)(F)F)nc2ccccc21 (stereo unspecified)	1.1	i
COc1ccc(-n2c(=O)c3ccccc3n(CC(=O)Nc3cc(C)on3)c2=O)cc1OC	-1.1	nt
SMILES	26S disassembly	VCAM-1 rise
O=C(O)CN1CCN(Cc2ccccc2)C1=O	-2.5	nt
CC1=C(C(=O)OC2CCCCC2)C(c2ccco2)n2ncnc2N1 (stereo unspecified)	0.1	nt
Cn1c(-c2ccc(C(C)(C)C)cc2)n[nH]c1=S	0.2	i
COC(=O)C1CCCN1C(C(=O)NC1CCCCC1)c1ccc(Cl)cc1 (stereo unspecified)	-0.1	nt
COc1ccc(/C=N/c2nc3ccccc3n2C)cc1OC	3.9	nt
N#Cc1nc(-c2ccccc2Cl)oc1N1CCOCC1	1.4	i
Fc1ccc(-c2nnc3ccc(N4CCCC4)nn23)cc1	1.2	i
O=C(CSc1nccn1-c1cccc(Cl)c1)NC1CCCC1	0.7	i
CCN1CCN(C(=O)c2ccc3c(=O)n(C4CCCC4)c(=S)[nH]c3c2)CC1	-1.9	i
COc1ccc(OC)c(C2C=C(c3ccc(C)c(C)c3)Nc3nnnn32)c1 (stereo unspecified)	1.1	nt
COc1ccc2c(c1)CCc1c(C(=O)NC3CCCCC3)noc1-2	-0.2	nt
O=C(CCCC(=O)OCC(=O)NC1CCCC1)Nc1ccccn1	0.6	i
CCOc1ccc(C(=O)N2CCN(c3ccccc3)CC2)cc1OCC	-4.2	i
O=C(Nc1ccccc1)c1ccc(NCC2CCCO2)c(S(=O)(=O)N2CCOCC2)c1 (stereo unspecified)	0.4	i
CCCCN(C)C(=O)c1oc2ccc(S(=O)(=O)N3CCCCCC3)cc2c1C	2.1	nt
CCN(CCCNC(=O)CC1Oc2ccc(C)cc2NC1=O)Cc1ccccc1 (stereo unspecified)	0.5	i
COc1ccc2cc3c(N)nn(C(=O)Cc4ccccc4OC)c3nc2c1	-2.6	nt
COC(=O)Cn1c(C)nc2c(sc3nc(C)cc(C)c32)c1=O	-1.7	i
O=C(CSc1ncn[nH]1)c1ccco1	0.1	i
O=C(CNS(=O)(=O)c1cccs1)N1CCc2ccccc2C1	1.3	nt
Cc1ccc(-c2ccc(=O)n(CC(=O)NCCN(C)C)n2)cc1	0.6	nt
O=C(NCCO)c1cccc2c1C(=O)c1ccccc1-2	-1.9	i
CCOc1ccc(N2CC(C(=O)NCCc3ccc(OC)c(OC)c3)CC2=O)cc1 (stereo unspecified)	-0.2	i
COc1cccc(C(=O)N(CN2CCCC2=O)c2cc(C)on2)c1	-1.5	nt
O=c1[nH]c(/C(=N\O)c2ccccc2)no1	-1.6	i
SMILES	26S disassembly	VCAM-1 rise
CC1CCN(S(=O)(=O)c2ccc3[nH]c(=O)c(=O)[nH]c3c2)CC1	-1.4	nt
O=C(Nc1ccccc1C(=O)N1CCN(c2ccccc2)CC1)c1ccco1	-0.1	i
Cc1nn(Cc2ccccc2)c(C)c1NC(=O)c1cc(-c2ccc3c(c2)OCO3)on1	0.9	nt
C=C(C)Cn1c(SCC)nc2ccccc2c1=O	0.1	i
COc1ccc(Cl)cc1S(=O)(=O)N1CCN(c2ccc(F)cc2)CC1	0.2	i
O=C(NCCN1CCOCC1)NC1(C(F)(F)F)Oc2ccccc2O1	0.4	nt
COc1ccc(N(CC(=O)NCCSC(C)(C)C)S(C)(=O)=O)c(OC)c1	-1.0	i
CCCCn1c(SCC(=O)NCC2CCCO2)nc2ccc(N3CCOCC3)cc2c1=O (stereo unspecified)	-1.8	nt
COc1ccc(N2CCN(Cc3nc4ccccc4c(=O)[nH]3)CC2)cc1	0.5	i
COc1cccc(CNC(=O)C2CCCN(S(=O)(=O)c3cnc[nH]3)C2)c1 (stereo unspecified)	2.3	nt
CCOC(=O)N1CCC(NC(=O)c2cc(S(=O)(=O)N3CCC4(CC3)OCCO4)ccc2F)CC1	0.8	nt
CCOC(=O)c1oc2cc(O)c(CC)cc2c(=O)c1-c1ccc2c(c1)OCCO2	0.6	nt
O=C(c1ccccc1F)N1CCN(Cc2cccc(Cl)c2)CC1	-1.2	i
CC(C)CNC(=O)c1ccccc1NC(=O)c1ccc(CN2CCOCC2)cc1	0.4	i
CCOc1cc(C2C(C(=O)OC)=C(C)N=C3SCCC(=O)N32)ccc1OC(C)=O (stereo unspecified)	1.3	nt
CCOC(=O)N1CCN(C(=O)COc2ccc(Br)cc2Cl)CC1	-0.2	61.2
O=c1[nH]ncc2c3ccccc3n(Cc3ccccc3)c12	1.4	nt
CCCC(=O)Nc1c2c(nn1-c1ccc(C)cc1C)CSC2	0.9	nt

Ordered by value in 26S disassembly (rising): 3 from the list above.
SMILES	26S disassembly	VCAM-1 rise
CCCCn1c(SCC(=O)NCC2CCCO2)nc2ccc(N3CCOCC3)cc2c1=O (stereo unspecified)	-1.8	nt
COc1ccc(N2CCN(Cc3nc4ccccc4c(=O)[nH]3)CC2)cc1	0.5	i
CCCC(=O)Nc1c2c(nn1-c1ccc(C)cc1C)CSC2	0.9	nt

Full records from above:
`CC1CCN(S(=O)(=O)c2ccc3[nH]c(=O)c(=O)[nH]c3c2)CC1` is entered as 26S disassembly = -1.4; VCAM-1 rise = nt
`CCOC(=O)N1CCC(NC(=O)c2cc(S(=O)(=O)N3CCC4(CC3)OCCO4)ccc2F)CC1` is entered as 26S disassembly = 0.8; VCAM-1 rise = nt
